High-throughput results from PubChem BioAssay.
Marburg entry inh: qHTS for inhibitors of binding or entry into cells for Marburg Virus; Marburg virus pseudotyped entry inhibition, cell reporter; control for the full effect not named in the record; about a third of the inactives were read at about 46 µM; Potency, µM (series often up to 37.8 µM), inactives show at the highest dose activity change, negative = inhibition, actives largely listed as inhibitors; 1.8% of 300,000 active; AID 540276, 2011; active = well fitted inhibition curve with a large enough effect; inconclusive = small, poorly fitted or top-dose-only effect, or effect the other way; inactive = flat fitted curve, though single readings scatter; tested in HEK293 cells; about a fifth of its hits are not listed in these tables; also: % is scaled to controls: 0 for no effect and ±100 for the full control effect; luciferase read-out
RE007 growth inh: qHTS Assay for Inhibitors of the HIV-1 protein Vpr; S. pombe RE007 Vpr strain, BacTiter-Glo ATP luminescence, 24 h; control for the full effect not named in the record; AID 651644, 2012; 0.21% of 360,000 active; Potency, µM (series often up to 92.2 µM), for the others: at the highest dose activity change, negative = less growth; active = well fitted falling curve with a large enough effect; inconclusive = small, poorly fitted or top-dose-only effect; inactive = no such curve, though single readings can be large or run the other way;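 also: % is scaled to controls: 0 for no effect and ±100 for the full control effect; nearly all actives have a fitted effect of over 50% in size; the assay follows cell death caused by Vpr and the record does not say whether a fall means rescue or toxicity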
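Fission yeast strain RE007, carrying one chromosomally integrated HIV-1 vpr copy, was seeded at OD 0.01 in PMG+AL medium with 23 nL pinned compound. After 24 h at 30 °C and 99% humidity, viability was read by BacTiter-Glo luminescence.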
StopGo reporter: High Throughput Screening for Foot and Mouth Disease Virus Antivirals | human cells with a luciferase reporter of 2A StopGo recoding; control for the full effect not named in the record | Potency, µM (top dose mostly 57.9 µM), without a hit: at the top dose signal change, negative = less light | 1.2% of 410,000 active | AID 1159524, 2015; active = well fitted falling curve with a large enough effect; inconclusive = small, poorly fitted or top-dose-only effect; inactive = no such curve, though single readings can be large or run the other way; tested in HEK293T cells; also: % is scaled to controls: 0 for no effect and ±100 for the full control effect; nearly all actives have a fitted effect of over 45% in size; luciferase light after 4 h
Cruzain inh Det: qHTS Assay for Promiscuous and Specific Inhibitors of Cruzain (with detergent); purified cruzain, Z-FR-AMC fluorescence, 0.01% Triton; 0.43% of 200,000 active; Cruzipain (Trypanosoma cruzi), P25779; Potency, µM, for inactives: max response, negative = inhibition, usual class: inhibitors; active = well fitted curve in the direction sought with a large enough effect; inconclusive = small, poorly fitted or top-dose-only effect, or another doubt; inactive = no such curve, though single readings can be large; an effect the other way counts as inactive or inconclusive;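 also: plate controls were neutral wells for no effect and buffer without enzyme for full effect; nearly all actives have a fitted effect of over 40% in size; top concentration of the series not given in the record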
Target sequence (P25779 123-467 limits assumed): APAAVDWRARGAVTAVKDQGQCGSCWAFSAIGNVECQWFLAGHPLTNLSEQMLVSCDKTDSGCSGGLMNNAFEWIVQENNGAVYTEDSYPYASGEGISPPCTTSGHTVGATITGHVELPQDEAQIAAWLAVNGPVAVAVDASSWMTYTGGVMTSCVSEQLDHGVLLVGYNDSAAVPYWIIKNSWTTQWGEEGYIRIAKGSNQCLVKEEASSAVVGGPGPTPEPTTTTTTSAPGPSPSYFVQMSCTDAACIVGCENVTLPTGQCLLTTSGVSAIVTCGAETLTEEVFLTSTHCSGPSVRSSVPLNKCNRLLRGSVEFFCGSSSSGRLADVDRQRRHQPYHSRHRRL
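Detergent-containing arm of a paired screen for aggregation-based inhibition: 0.01% Triton X-100 present. Cruzain at 1.5 nM cleaved 2 uM Z-FR-AMC at pH 5.5 with 5 mM DTT; AMC fluorescence gain over 60 s measured activity.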
Lassa entry inh: qHTS for Inhibitors of binding or entry into cells for Lassa Virus; Lassa virus pseudotype entry inhibition, cell reporter; control for the full effect not named in the record; Potency, µM (top dose mostly 37.9 µM), for the others: top-dose activity change, negative = inhibition, hits mostly inhibitors; 1.2% of 300,000 active; AID 540256, 2011; active means well fitted inhibition curve with a large enough effect; inconclusive means small, poorly fitted or top-dose-only effect, or effect the other way; inactive means flat fitted curve, though single readings scatter; tested in HEK293 cells; also: % is scaled to controls: 0 for no effect and ±100 for the full control effect; nearly all actives have a fitted effect of over 50% in size; luciferase read-out
NS1 inh: qHTS Assay for Inhibitors of Influenza NS1 Protein Function; S. cerevisiae slowed by influenza A NS1, growth recovery by OD600; Potency, µM (doses to about 46.1 µM), for inactives: at the highest dose activity, positive = more growth; 0.4% of 270,000 active; AID 2326, 2010; also: actives are rising curves; nearly all actives have a fitted effect of over 50% in size
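Read-out: OD600 growth recovery of NS1-expressing budding yeast. Cells grown overnight at 30C in -URA glucose medium, washed, resuspended and diluted 1:100 in 2% galactose assay medium, pH 6.0. Same strain lacking NS1 served as positive control.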
SARS PLP yeast: qHTS of Yeast-based Assay for SARS-CoV PLP; S. cerevisiae expressing SARS-CoV PLpro, growth rescue; control for the full effect not named in the record; Potency, µM (highest dose often 32.9 µM), for the others: at the highest dose activity, positive = growth rescue; 0.19% of 330,000 active; also: 0% is about no effect; nearly all actives have a fitted effect of over 55% in size; growth read by luminescence after 48 h
Cruzain noTriton: qHTS Assay for Promiscuous and Specific Inhibitors of Cruzain (without detergent); purified cruzain, Z-FR-AMC fluorescence, no detergent; Potency, µM, without a hit: max response, negative = inhibition, hits mostly inhibitors; 2.3% of 200,000 active; active = well fitted curve in the direction sought with a large enough effect; inconclusive = small, poorly fitted or top-dose-only effect, or another doubt; inactive = no such curve, though single readings can be large; an effect the other way counts as inactive or inconclusive;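 also: plate controls were enzyme without inhibitor for no effect and buffer without enzyme for full effect; nearly all actives have a fitted effect of over 40% in size; top concentration of the series not given in the record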
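Detergent-free condition (0.00005% Triton X-100) in acetate buffer pH 5.5 with DTT. 1.5 nM enzyme and compound were pre-mixed 15 min, then 2 uM Z-FR-AMC substrate added; reaction progress from fluorescence change between first and third reads (60 s).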
Starred values were filed as active, the others as inactive; ? = inconclusive; / = no result given; [ ] = remark or other dose. Unless noted, calls follow the shape of the dose curve; as a rule, active means well fitted rising curve with a large enough effect; inconclusive means small, poorly fitted or top-dose-only effect; inactive means no such curve, though single readings can be large or run the other way. Potency is read from the fitted curve at half-maximal effect.

SMILES	Marburg entry inh	RE007 growth inh	StopGo reporter	Cruzain inh Det	Lassa entry inh	NS1 inh	SARS PLP yeast	Cruzain noTriton
O=C(c1cc2cc([N+](=O)[O-])ccc2oc1=O)N1CCN(C2CCCCC2)CC1	9%[46.1 µM]	-9%	-14%	/	-1%[46.1 µM]	5%	1%	/
COc1ccc(CC(=O)OCC(=O)NCc2ccc(Cl)cc2)cc1	-4%[46.1 µM]	-16%	-14%	/	2%[46.1 µM]	/	-1%	/
CCOC(=O)c1c(CN2CCCCC2)n(C)c2cc(Br)c(O)cc12	?	11%	-21%	-2.0%	8%	-4%	2%	-5%
Cc1c(C(=O)NC(=S)Nc2ccc(N3CCOCC3)cc2)cccc1[N+](=O)[O-]	5%[46.1 µM]	-20%	9%	/	-2%[46.1 µM]	/	2%	/
COc1ccc(C(CNC(=O)c2cccc(NC(=O)c3cccs3)c2)N2CCCC2)cc1 (centres undefined)	?	-18%	-17%	/	2%	/	2%	/
O=C(CSc1nnc(-c2ccc(O)cc2)o1)NNC(=O)c1ccncc1	?	11%	-19%	/	17%	1%	3%	/
CCOC(=O)C1CCCN(C(=O)C(C)Oc2ccc(Cl)cc2Cl)C1 (centres undefined)	-9%	13%	-18%	2.0%	-2%	-20%	0%	6%
COC(=O)c1ccc(NC(=O)CCS(=O)(=O)c2ccc(C)cc2)cc1	/	1%	-4%	/	/	0%	0%	/
Cc1ccc(C)c(N2CCN(CC(=O)Nc3ccc([N+](=O)[O-])cc3C(=O)Nc3ccccc3F)CC2)c1	?	-5%	-29%	-3.4%	-9%	2%	0%	?
NS(=O)(=O)c1ccc(CCNC(=O)COC(=O)CCSc2ccc(Cl)cc2)cc1	-13%	-10%	-12%	-24%	-1%	3%	-15%	-15%
Fc1ccccc1OCC1CCCN(Cc2nc(CC3CC3)no2)C1 (centres undefined)	2%[46.1 µM]	-2%	-2%	/	6%	-11%	-1%	/
O=C(NCCN1CCN(C(=O)c2cccc([N+](=O)[O-])c2)CC1)C(=O)NCc1ccc(Cl)cc1	?	0%	?	/	-16%	-4%	-1%	/
CCCCn1nc(C(=O)OCC(=O)Nc2sccc2C(N)=O)c2ccccc2c1=O	1%[46.1 µM]	0%	-24%	/	-3%[46.1 µM]	/	-1%	/
Cc1cc(-n2c(C)cc(C(=O)CSc3nnnn3-c3ccccc3)c2C)no1	-21%	40%	-27%	1.7%	?	-4%	-6%	-12%
S=C(NCc1ccccn1)NN=Cc1ccccn1	?	-19%	8%	/	13µM*	/	/	/
O=C(CCS(=O)(=O)Cc1ccccc1F)N1CCc2ccccc2C1	-5%	-20%	-17%	3.3%	2%	-1%	-11%	-3%
Cc1noc(C)c1C(=O)N1CCc2ccccc2C1	11%	1%	10%	1.5%	-3%	-3%	6%	7%
Cc1ccc(NC(=O)CNc2cc(S(=O)(=O)N3CCOCC3)ccc2N2CCOCC2)cc1S(=O)(=O)N(C)C	13%	8%	-12%	/	-1%	/	-9%	/
Nc1ccc2oc(-c3ccccn3)nc2c1	-19%[46.1 µM]	-15%	33%[activator]	-3.3%	?	4%	-29%	-12%
NNC(=O)c1cc2cc3ccccc3nc2s1	3%	1%	41%[activator]	/	-20%	/	-2%	/

An excerpt from the list above:
SMILES	Marburg entry inh	RE007 growth inh	StopGo reporter	Cruzain inh Det	Lassa entry inh	NS1 inh	SARS PLP yeast	Cruzain noTriton
O=C(c1cc2cc([N+](=O)[O-])ccc2oc1=O)N1CCN(C2CCCCC2)CC1	9%[46.1 µM]	-9%	-14%	/	-1%[46.1 µM]	5%	1%	/
COc1ccc(CC(=O)OCC(=O)NCc2ccc(Cl)cc2)cc1	-4%[46.1 µM]	-16%	-14%	/	2%[46.1 µM]	/	-1%	/

Later entries.
SMILES	Marburg entry inh	RE007 growth inh	StopGo reporter	Cruzain inh Det	Lassa entry inh	NS1 inh	SARS PLP yeast	Cruzain noTriton
CCC(C)(C)NC(=O)C(c1ccc(C)cc1)N(CC1CCCO1)C(=O)CNC(=O)c1cccs1 (centres undefined)	-20%	4%	/	1.3%	21%	-7%	-1%	4%
CC(C)[C@@H](C(=O)NC1CCCC1)N1C(=O)N2CCc3c([nH]c4ccccc34)[C@@]2(C)C1=O	/	2%	?	/	/	-12%	0%	/
COc1ccccc1NC(=O)c1ccc2c(c1)OCO2	0%[46.1 µM]	-15%	16%	/	?	-4%	-6%	/
COc1ccc(C(=O)NCc2csc(C(C)C)n2)cc1OC1CCN(C(C)=O)CC1	5%	15%	-12%	/	17%	-4%	-3%	/
CCOC(=O)c1c(C)[nH]c(C)c1C(=O)CSc1nc2ccccc2c(=O)n1-c1ccc(F)cc1	?	-5%	?	/	?	14%	0%	/
COc1ccc(CCNC(=O)CSc2nnc(-c3cccc(C)c3)o2)cc1OC	-1%	4%[3.69 µM]	-13%	3.1%	16%	-9%	1%	3%
Cc1nc(-c2cccc(Cl)c2)n[nH]1	/	-1%	38%[activator]	/	/	0%	-6%	/
CCOC(=O)C1CCCN(C(=O)c2ccc(Cl)cc2)C1 (centres undefined)	-22%[46.1 µM]	14%	-8%	/	-3%[46.1 µM]	4%	-1%	/
CCN(CC)S(=O)(=O)c1ccc(S(=O)(=O)NCC2CCCO2)cc1 (centres undefined)	/	-6%	27%	/	/	9%	6%	/
O=C(NCCC1=CCCCC1)N[C@@H](Cc1ccccc1)C(=O)O	7%	2%	19%	1.0%	-10%	5%	-2%	-2%
N#CC(C#N)=C1C(=O)N(CCN2CCOCC2)c2ccccc21	3%[46.1 µM]	59%	-29%	/	0%	5%	2%	/
COc1ccc(CCNc2cc(C)nc3c(-c4ccc(Cl)cc4)cnn23)cc1OC	-11%	-6%	-28%	-17%	-4%	13%	-16%	-18%
CCNC(=O)COC(=O)c1cccc(Br)c1	-3%[46.1 µM]	-4%	-3%	/	-10%	5%	3%	/
CC1=CC(C)C2(COC(=O)Nc3ccccc3)COC(C)C1C2C (centres undefined)	-1%[46.1 µM]	16%	-22%	/	?	-8%	-2%	/
O=C(Nc1cccc(Cl)c1)OC1CN2CCC1CC2 (centres undefined)	/	-18%	7%	/	/	2%	-3%	/
Cn1cccc1/C=C1\SC(=S)N(NC(=O)c2ccccc2)C1=O	?	14%	14%	-16%	3%	21%	-10%	?
CC(C)COc1ccc(-c2cc(C(=O)NN)[nH]n2)cc1	4%	0%	25%	-3.2%	?	14%	17%	-1%
Cc1oc(-c2ccccc2)nc1Cn1c(=O)cc(-c2ccccc2)c2c(C)nn(C)c21	/	/	-29%	0.0%	7%[46.1 µM]	/	/	-9%
COCc1nc2cccnc2n1C1CCN(S(=O)(=O)N(C)C)CC1	/	/	15%	2.2%	-5%[46.1 µM]	/	/	2%
CCOC(=O)C1(CCOc2ccccc2)CCN(Cc2cccc3c2OCO3)CC1	?	-17%	?	/	?	-1%	0%	/
COc1cc(S(=O)(=O)Nc2ccc(C)cc2)ccc1N=Cc1c(C)c(C#N)c(=O)n(C)c1O	-27%[46.1 µM]	-10%	-78%	/	-6%	/	1%	/
CCCCNC(=O)C(=O)Nc1cc2c3c(c1)CCC(=O)N3CCC2	/	-11%	-10%	/	/	-3%	2%	/
Cc1onc(-c2ccccc2)c1C(=O)Nc1nc(-c2ccccc2)cs1	?	-11%	0%	-1.1%	?	6%	-11%	?
CCN(CC)c1nc2c(S(=O)(=O)c3cccc(Cl)c3)nnn2c2ccsc12	/	/	-18%	-4.0%	-20%[46.1 µM]	/	/	-16%
Cc1cc(C)cc(N2CC(O)=C(c3nc4ccccc4c(=O)[nH]3)C2=N)c1	?	-6%	5%	/	-17%	-41%	-1%	/
O=C(CNC(=O)c1ccc(Cl)c([N+](=O)[O-])c1)OCN1C(=O)c2ccccc2C1=O	14%	0%	1%	/	8%	/	0%	/
Cc1ccc(C)c(NC(=S)N(C2CCCCC2)C(C)c2cccnc2)c1 (centres undefined)	19%[46.1 µM]	7%	-3%	/	1%	6%	1%	/
COc1cccc(-c2nnc(NC(=O)c3ccco3)s2)c1	/	-7%	63%[activator]	/	/	-21%	12%	/
COC(=O)c1ccccc1NC(=O)NCCc1c(C)nn(C)c1C	/	/	7%	-0.9%	-4%[46.1 µM]	/	/	-3%
O=C(c1cccn(Cc2ccc(Cl)c(Cl)c2)c1=O)N1CCOCC1	-2%	-2%	-9%	1.2%	0%	14%	0%	-12%
O=C(CCCN1C(=O)/C(=C\c2cccc(Br)c2)SC1=S)Nc1cccnc1	4.5µM*	-8%	-25%	/	?	13%	1%	/
Cc1ccc2nsnc2c1NC(=O)c1sc2ccccc2c1Cl	2%	6%	-12%	0.8%	1%	2%	-3%	-6%
Cc1cccc(CNC(=O)C2CCN(S(=O)(=O)c3cccc4nonc34)CC2)c1	/	/	-18%	1.8%	10%[46.1 µM]	/	/	20%
COc1cccc(CCNC(=O)c2ccc(Cn3c(SCc4ccccc4)nc4cccnc43)cc2)c1	-5%[46.1 µM]	/	-14%	-8.2%	/	/	/	-19%
CC1CCN(c2ccc(-c3ccc(NC(=O)C(F)(F)F)cc3)nn2)CC1	?	0%	-9%	/	?	-4%	-1%	/
C=CCc1ccc(OCc2ccc(C(=O)O)o2)c(OC)c1	?	5%	14µM*	/	?	5%	0%	/
COc1cccc(CNC(=O)CCC2CCCN(C3CCOCC3)C2)c1 (centres undefined)	?	2%	-11%	/	0%	-2%	-1%	/
CCOc1cc(/C=N/NC(=O)c2ccncc2)ccc1OC(=O)c1ccco1	27%[46.1 µM]	-25%	-6%	/	28%[46.1 µM]	22%	1%	/
CC(C)CC(c1nnnn1CC1CCCO1)N1CCN(c2cccc(Cl)c2)CC1 (centres undefined)	-22%	-13%	-16%	-5.6%	?	-17%	5%	?
O=C(C1CCN(S(=O)(=O)N2CCOCC2)CC1)N1CCN(c2ccccc2F)CC1	7%	2%	-5%	/	?	/	-3%	/
